BmaI1 enzyme = BmaI1 acyl-homoserine lactone synthase inhibition – biochemical, fluorescence intensity, with counterscreen (AID 720554). inhibition, %. BmaI1 enzyme assay, fluorescence intensity; hits give high values; test concentration not given here; a few actives read low; strong numbers were not always called active. 0.4% of 12,000 active;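 active means both replicates within 2 robust z-scores of the inhibited control and a quiet counterscreen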;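 further: 0% = uninhibited enzyme and 100% = inhibited control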
BmaI1 enzyme counterscreen = also measured in BmaI1 enzyme; calls as there; inhibition, %; measured here: counterscreen; design of the counterscreen not given here;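 first of two replicates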
Numbers without * were called inactive. An excerpt; count on the stated rates, not on these rows.

SMILES	BmaI1 enzyme	BmaI1 enzyme counterscreen
CC1=C/C(=N\Nc2ccnc3cc(Cl)ccc23)CC1	74	54
Cc1onc(-c2c(Cl)cccc2Cl)c1C(=O)N[C@@H]1C(=O)N2[C@@H]1SC(C)(C)[C@@H]2C(=O)O	6	13
COCc1c(C(=O)OCC(=O)c2ccc(OC(F)F)cc2)oc2ccccc12	12	0
O=C(CSc1ncnc2ccccc12)c1ccccc1	12	4
Cc1ccc(C)c(N2N=C(C(=O)OCn3nnc4ccccc4c3=O)CCC2=O)c1	12	10
O=C(OCCCOc1ccc(F)cc1)c1ccc(-n2cnnn2)cc1	8	12
CCN(Cc1ccc2c(c1)OCCO2)C(=O)c1ccc(-n2cccn2)cc1	16	-1
Cc1nc2sccn2c1-c1nc(-c2ccccc2)c(C(=O)c2ccc3c(c2)NC(=O)CO3)s1	11	4
CCO/C=C1/C(=O)N(C)C(=O)c2ccccc21	6	-3
CCNc1nnc(-c2nn(CC(C)C)c(=O)c3ccccc23)s1	10	1
Cc1nn(-c2ccccc2)c(N2CCCC2)c1/C=N/OCC(=O)Nc1ccc(F)cc1F	-1	-9
CC(C)(C#N)c1cc(Cn2cncn2)cc(C(C)(C)C#N)c1	12	18
Oc1ccccc1N1CCN(CCOc2ccc(Cl)cc2Cl)CC1	71	19
Cc1[nH]c2ccccc2c1/C=N/n1c(-c2cc3ccccc3o2)csc1=NC1CC1	25	22
O=C(/C=C/c1ccc2ccccc2n1)NCC(F)(F)F	17	-2
O=C(OCc1nnc(-c2ccc(Cl)cc2)o1)C1CCN(c2ccc(C(F)(F)F)cn2)CC1	12	5
CCCN(Cc1nnc(-c2ccco2)o1)C(=O)c1nn(-c2ccccc2)nc1C	8	4
CN(C)S(=O)(=O)c1ccc(C(=O)OCCn2cnc3c2c(=O)n(C)c(=O)n3C)cc1	6	7
Cc1cccc(Nc2nnc(SCc3ccccc3C#N)s2)c1	15	4
Nc1sc2c(c1C(=O)c1cccs1)CCCC2	36	10
C=CCN=C1NN=C(c2ccc(Cl)cc2)C(C)S1 (centres undefined)	12	5
Cc1ccc(-c2nnc(SCN3C(=O)c4ccccc4C3=O)o2)cc1C	18	10
CCOc1ccc(/C=N/N2C(=O)NC(C)(CC)C2=O)c(O)c1 (centres undefined)	0	-4
CCN(CC(=O)Nc1cc(C)on1)CC(=O)NC1CCS(=O)(=O)C1 (centres undefined)	12	10
CN(C)S(=O)(=O)c1ccc(=O)[nH]c1	9	8
CN(C(=O)/C=C/C(=O)O)c1ccccc1	14	20
CN(C)S(=O)(=O)c1ccc(C(=O)COC(=O)c2ccccc2NCc2ccco2)cc1	15	14
COc1ccc(NC(=O)/C(C#N)=N/Nc2cc(C(=O)O)ccc2C)cc1	20	5
Cc1noc(C)c1CCC(=O)NC1=NCCS1	2	4
O=C(NCCc1c[nH]c2ccccc12)c1ccc(COc2ccc(F)cc2)o1	3	4
N#CC(C(=O)CN1C(=O)S/C(=C\c2cccs2)C1=O)c1ccccn1 (centres undefined)	10	6
CC(=O)NCCC(=O)N1CCCSC1=Nc1c(C)cccc1C	14	4
COc1ccccc1-n1cnnc1SCC(=O)NC1CCCCC1C (centres undefined)	12	3
CC1(C)CC2CC(C)(CN2C(=O)CN2CCN(C/C=C/c3ccccc3)CC2)C1 (centres undefined)	4	2
CC(Oc1ccccc1C(=O)c1cc(C#N)c(=O)n(C2CCCCC2)c1)C(=O)N1CCOCC1 (centres undefined)	11	4
CNCc1cnn(Cc2ccccc2)c1	19	11
CC1CN(C(=O)CSc2nc(N)cc(=O)[nH]2)CC(C)O1 (centres undefined)	-18	-6
Cn1ccnc1C(N)c1ccccc1 (centres undefined)	10	-12
C=CCn1sc(N)c(C(=O)OCC)c1=S	16	16
N#Cc1ccc(OCC(=O)N2CCSc3ccccc32)cc1	24	9
O=C(OCC(=O)N1CCc2ccccc2C1)c1ccccc1	6	4
COc1cccc(CNC(=O)C2CCN(S(=O)(=O)c3ccccc3)CC2)c1	16	8
COc1cc(OC)cc(C(=O)OCC(=O)c2cc3ccccc3o2)c1	14	6
Cc1oc2nc[nH]c(=O)c2c1C(=O)NCCC(c1ccccc1)c1ccccc1	11	4
O=C(Nc1ccc(F)cc1)Nc1ccc2[nH]c(=O)[nH]c2c1	62	34
CCOc1cccc2cc(C(C)N)oc12 (centres undefined)	2	2
Cn1ccnc1SCC(=O)NC(=O)NCc1ccccc1	7	3
Cc1cccc2nc(CN3CCN(Cc4ccc5c(c4)OCO5)CC3)cc(=O)n12	18	10
COC(=O)c1ccc(COC(=O)c2c(-c3ccccc3)noc2C)o1	-12	3
c1ccc(CNC2=NCCC2)nc1	14	8
The results go on:
SMILES	BmaI1 enzyme	BmaI1 enzyme counterscreen
Cc1ccc(S(=O)(=O)N(C)c2ccc(OCC(=O)N3CCN(c4ncccn4)CC3)cc2)cc1	12	2
Cc1noc(C)c1CC(=O)OCc1ccc(C#N)cc1	34	4
CCN(CC(=O)c1c(N)n(Cc2ccccc2)c(=O)n(CC)c1=O)Cc1nc2ccccc2c(=O)[nH]1	21	6
CN(C)C(=O)CSc1ncnc2sc3c(c12)CCCC3	14	3
COc1cccc(-c2noc(COC(=O)c3ccccc3-c3ccccc3C#N)n2)c1	9	3
Cn1cnnc1SCc1ccc(C(=O)N/N=C2\CCCc3ccccc32)cc1	23	14
O=c1c(Cl)c(Cl)cnn1C1CCS(=O)(=O)C1 (centres undefined)	13	3
O=C(CCCSc1nnc(-c2ccc3c(c2)OCO3)o1)c1cccs1	12	6
CN1C(=O)COc2c(C(=O)NC3CN4CCC3CC4)cc(Cl)cc21 (centres undefined)	-3	-4
COc1ccc(/C=C(\C#N)C(=O)OCc2nc(-c3ccc(C)cc3)no2)cc1	16	8

At a glance, 2 of the compounds above:
SMILES	BmaI1 enzyme	BmaI1 enzyme counterscreen
CN1C(=O)COc2c(C(=O)NC3CN4CCC3CC4)cc(Cl)cc21 (centres undefined)	-3	-4
COc1ccc(/C=C(\C#N)C(=O)OCc2nc(-c3ccc(C)cc3)no2)cc1	16	8

Next part
SMILES	BmaI1 enzyme	BmaI1 enzyme counterscreen
COc1cc(CC(C#N)(CO)c2nc3ccccc3[nH]2)ccc1OC(F)F (centres undefined)	2	-6
CC1CC(C)CN(Cn2ncn(C)c2=S)C1 (centres undefined)	30	33
N#CCc1ccc(Oc2ncnc3c2oc2ccccc23)cc1	4	-1
CC(OC(=O)c1ccc(CN2CCCC2=O)cc1)C(=O)c1ccc(F)cc1 (centres undefined)	12	6
Cc1ccc(C)c(NC(=O)CN(C)C(=O)c2ccccn2)c1	11	5
Cc1ccc(S(=O)(=O)N2CCCC(C(=O)N3CCCCC3)C2)cc1 (centres undefined)	2	-8
CN(C)S(=O)(=O)c1ccc(C(=O)Oc2cc(=O)[nH]c3ccccc23)cc1	20	2
CCC(C)(C)C1CCC(N)CC1 (centres undefined)	0	3
O=S(=O)(NCc1ccco1)c1cccc(-n2cnnn2)c1	12	8
CN(C(=O)Cn1c(=O)oc2ccccc21)c1ccccc1	14	10
O=C(O)c1cc(=O)c2c(OCC(O)COc3cccc4oc(C(=O)O)cc(=O)c34)cccc2o1	0	8
O=C(COc1nc2ccccc2nc1N1CCOCC1)NCCc1ccc(F)cc1	18	4
Cc1ccc(C2=NN(C(=O)CNc3ccc(S(=O)(=O)N4CCCC4)cc3)C(c3ccco3)C2)cc1 (centres undefined)	11	3
CCOC(=O)c1c(CSc2nnc(Cc3csc(C)n3)o2)nc2ccccc2c1C	12	6
CC(C(=O)NC1CCCC1)n1cc(Br)ccc1=O (centres undefined)	5	9
N#Cc1oc2ccccc2c1N=Cc1c(O)n(-c2cccc(C(F)(F)F)c2)c(=O)c2ccccc12	2	8
O=S(=O)(N/N=C/c1ccc(N2CCOCC2)cc1)c1ccccc1	36	23
COc1cc(Cl)c(C)cc1NC(=O)Cn1c(=O)c2c(ncn2CC(C)C)n(CC(C)C)c1=O	16	6
CC(Cc1nnc(SCC(=O)Nc2ccc(Cl)cn2)n1N)c1ccccc1 (centres undefined)	18	8
CCCN(CC(=O)Nc1ccc(Cl)cc1Cl)Cn1nnc2ccccc21	-6	-1
CCN(CC(=O)Nc1cccc(OC)c1)CC(=O)Nc1ccccc1C	6	2
C=CCSc1nnc(NC(=O)/C=C/c2c(Cl)nc3sccn23)s1	6	4
Cc1cc(N=Cc2c(O)n(-c3ccc(C(C)C)cc3)c(=O)c3ccccc23)n[nH]1	20	14
O=C(CN1CCN(S(=O)(=O)c2ccccc2)CC1)Nc1cccc(C(F)(F)F)c1	12	14
CCOC(=O)c1[nH]c(CO/N=C/C(=O)Nc2ccc3c(c2)OCCO3)c(C(=O)OCC)c1C	36	9
Cc1ccc(NC(=O)Cc2c(C)nc3ncnn3c2C)cc1	6	8
c1ccc(-n2nnnc2Sc2nc(C3CC3)n(-c3ccccc3)n2)cc1	20	8
N#C/C(=C(/O)CN1CCN(Cc2ccccc2)CC1)c1nc(-c2ccccc2)cs1	14	6
CC(NC(=O)Cn1c(CCCO)nc2ccccc21)C1CC2CCC1C2 (centres undefined)	12	14
COc1cc(C2C3=C(CC(C)(C)CC3=O)N(C)C(=O)N2C)cc(OC)c1OC (centres undefined)	4	2

Part of the list above, with bars between the fields:
SMILES | BmaI1 enzyme | BmaI1 enzyme counterscreen
CC1=C/C(=N\Nc2ccnc3cc(Cl)ccc23)CC1 | 74 | 54
Cc1onc(-c2c(Cl)cccc2Cl)c1C(=O)N[C@@H]1C(=O)N2[C@@H]1SC(C)(C)[C@@H]2C(=O)O | 6 | 13
COCc1c(C(=O)OCC(=O)c2ccc(OC(F)F)cc2)oc2ccccc12 | 12 | 0
O=C(CSc1ncnc2ccccc12)c1ccccc1 | 12 | 4
Cc1ccc(C)c(N2N=C(C(=O)OCn3nnc4ccccc4c3=O)CCC2=O)c1 | 12 | 10
O=C(OCCCOc1ccc(F)cc1)c1ccc(-n2cnnn2)cc1 | 8 | 12
CCN(Cc1ccc2c(c1)OCCO2)C(=O)c1ccc(-n2cccn2)cc1 | 16 | -1
Cc1nc2sccn2c1-c1nc(-c2ccccc2)c(C(=O)c2ccc3c(c2)NC(=O)CO3)s1 | 11 | 4
CCO/C=C1/C(=O)N(C)C(=O)c2ccccc21 | 6 | -3
CCNc1nnc(-c2nn(CC(C)C)c(=O)c3ccccc23)s1 | 10 | 1
Cc1nn(-c2ccccc2)c(N2CCCC2)c1/C=N/OCC(=O)Nc1ccc(F)cc1F | -1 | -9
CC(C)(C#N)c1cc(Cn2cncn2)cc(C(C)(C)C#N)c1 | 12 | 18
Oc1ccccc1N1CCN(CCOc2ccc(Cl)cc2Cl)CC1 | 71 | 19
Cc1[nH]c2ccccc2c1/C=N/n1c(-c2cc3ccccc3o2)csc1=NC1CC1 | 25 | 22
O=C(/C=C/c1ccc2ccccc2n1)NCC(F)(F)F | 17 | -2
O=C(OCc1nnc(-c2ccc(Cl)cc2)o1)C1CCN(c2ccc(C(F)(F)F)cn2)CC1 | 12 | 5
CCCN(Cc1nnc(-c2ccco2)o1)C(=O)c1nn(-c2ccccc2)nc1C | 8 | 4
CN(C)S(=O)(=O)c1ccc(C(=O)OCCn2cnc3c2c(=O)n(C)c(=O)n3C)cc1 | 6 | 7
Cc1cccc(Nc2nnc(SCc3ccccc3C#N)s2)c1 | 15 | 4
Nc1sc2c(c1C(=O)c1cccs1)CCCC2 | 36 | 10

(next part)
SMILES	BmaI1 enzyme	BmaI1 enzyme counterscreen
Cc1nc(Sc2nnc3n2CCCCC3)c2c(-c3cccs3)csc2n1	46	6
CSc1ccccc1NC(=O)CN(C)CC(=O)Nc1ccc(N2CCOCC2)cc1	20	6
CCOc1ncccc1C(=O)Nc1ccnn1Cc1ccccn1	14	-1
O=c1c(-c2ccc(F)cc2)coc2c3c(ccc12)OCCO3	3	-2
CC(C(=O)Nc1ccc2c(c1)OCO2)N(C)Cc1c(F)cccc1Cl (centres undefined)	12	0
Clc1ccc(N=C2SCC3CCCCN23)cc1 (centres undefined)	14	14
COc1cc(CNC(=O)CCCC/C=C\C(C)C)ccc1O	45	30
C=CCN1C(=O)C(O)(c2sc(N3CCOCC3)nc2C)c2ccccc21 (centres undefined)	10	8
